# From PubChem
# gsp antagonist – antagonizes gsp, the McCune-Albright syndrome mutation; AID 624288; Potency, µM (series often up to 76.9 µM), inactives show top-dose activity change, negative = inhibition, actives largely listed as inhibitors; gsp-mutant cells, cAMP HTRF, 30 min; control for the full effect not named in the record; actives 0.4% (n = 340,000); active = falling curve of any shape with a large fitted effect; inconclusive = falling curve, mostly with a smaller effect; inactive = flat or rising curve; cell line not stated here;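 also: intracellular cAMP measured with PDE inhibitor Ro 20-1724 present during compound exposure; potency is read from the fitted curve at half-maximal effect; % is scaled to controls: 0 for no effect and ±100 for the full control effect; nearly all actives have a fitted effect of over 65% in size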
#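 Cells, 2000/well, grown 16–24 h in DMEM 10% FBS with 0.5 mg/ml G418, then compounds plus […] (300 uM addition stock), 30 min at 37C. cAMP read by HTRF (cAMP-d2 and anti-cAMP antibody-K in lysis buffer) after 30 min RT.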
# D2 ag – human D2 receptor agonism in beta-arrestin assay; DiscoveRx PathHunter D2 beta-arrestin, luminescence, 90 min; 100% = 57 uM dopamine signal; activation, % (concentration not given with the values); actives 0.084% (n = 360,000); AID 624465; in the data active = activation above about 40%; inconclusive = about 15% to 40%; inactive = below about 15%; also: compound concentration not given in the record; the text of the record calls up to 30% inactive
#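 DiscoveRx PathHunter D2 beta-arrestin cells (2,100/well) attached overnight, then compound-stimulated 90 min at 37 C in HBSS/10 mM HEPES/0.1% Tween-20 buffer; beta-galactosidase complementation read by luminescence after 1 h at ambient temperature. Dopamine 57 uM final (EC100) as control.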
# D2 potentiator – positive allosteric modulators of human D2 dopamine receptor | DiscoveRx D2 beta-arrestin cells, luminescence, 90 min; 100% = 57 uM dopamine signal | potentiation, % (no concentration beside the values) | actives 0.23% (n = 360,000) | AID 624464; active = potentiation of 50% or more; inconclusive = 30% to 50%; inactive = 30% or less;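 also: compound concentration not given in the record; tested on top of an EC20 dose of dopamine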
#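 PathHunter beta-arrestin assay in DiscoveRx D2 cells. Compounds were added with an EC20 of dopamine (50 nM final) for 90 min at 37 deg C. Luminescence was read 1 h after detection reagent, with 57 uM dopamine as the EC100 control.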
# gsp agonist – gsp mutant agonism | gsp mutant cells, cAMP HTRF, 30 min; control for the full effect not named in the record | Potency, µM (highest dose often 76.9 µM), for the others: at the highest dose activation (cAMP increase), most hits filed as activators | actives 0.13% (n = 340,000); active = well fitted activation curve with a large enough effect; inconclusive = small, poorly fitted or top-dose-only effect, or another doubt; inactive = no such curve, though single readings can be large or run the other way; cell line not stated here;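 also: phosphodiesterase inhibitor Ro 20-1724 added with compounds to block cAMP breakdown; potency is read from the fitted curve at half-maximal effect; nearly all actives have a fitted effect of over 60% in size; about a fifth of the inactives were tested at one dose only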
#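 Cells stably selected in G418 were plated at 2000/well, grown 16-24 hr, then given compounds in DMSO with the PDE inhibitor […] (300 uM solution added) for 30 min at 37C; cAMP was read by HTRF.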
# CtBP-E1A blk – CtBP/E1A binding inhibition. activity change, % (no concentration beside the values). AID 651724. AlphaScreen GST-E1A/His-CtBP binding, 1536-well; active compounds read low; control for the full effect not named in the record. actives 0.49% (n = 340,000); in the data active means activity change below about -65%; inconclusive means about -30% to -65%; inactive means above about -30%; also: % is scaled to controls: 0 for no effect and ±100 for the full control effect
#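 Steps: dispense buffer (Tris pH 8.0, NaCl 300 mM, TCEP 1 mM, BSA, Tween 20); add 5X protein mix (GST-E1A, His-CtBP, 125 nM each); pin 23 nL compound; 2 h at 37 °C, dark; add 5X beads (50 ug/mL); 1 h; read.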
# Six1-Eya2 inh – inhibitors of human Six1/Eya2 interaction; AlphaScreen GST-Six1/His-Eya2 binding, biochemical; active compounds read low; control for the full effect not named in the record; actives 0.56% (n = 360,000); activity change, % (concentration not given with the values); in the data active = activity change below about -65%; inconclusive = about -30% to -65%; inactive = above about -30%; also: % is scaled to controls: 0 for no effect and ±100 for the full control effect
# Target sequence (O00167 whole entry, looked up): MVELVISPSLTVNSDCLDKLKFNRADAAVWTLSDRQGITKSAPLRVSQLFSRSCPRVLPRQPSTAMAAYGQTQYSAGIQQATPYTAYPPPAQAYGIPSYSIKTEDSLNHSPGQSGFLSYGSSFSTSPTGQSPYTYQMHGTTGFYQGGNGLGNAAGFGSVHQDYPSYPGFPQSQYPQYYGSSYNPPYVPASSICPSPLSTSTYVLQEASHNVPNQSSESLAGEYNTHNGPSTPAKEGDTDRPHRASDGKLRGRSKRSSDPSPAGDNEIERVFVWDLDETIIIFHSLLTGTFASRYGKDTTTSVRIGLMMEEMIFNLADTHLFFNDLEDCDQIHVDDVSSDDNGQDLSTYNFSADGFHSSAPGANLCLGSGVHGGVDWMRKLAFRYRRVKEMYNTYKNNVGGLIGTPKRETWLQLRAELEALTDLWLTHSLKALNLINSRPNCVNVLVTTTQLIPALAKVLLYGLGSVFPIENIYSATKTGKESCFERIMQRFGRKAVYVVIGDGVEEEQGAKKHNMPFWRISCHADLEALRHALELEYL
# Target sequence (Q15475 whole entry, looked up): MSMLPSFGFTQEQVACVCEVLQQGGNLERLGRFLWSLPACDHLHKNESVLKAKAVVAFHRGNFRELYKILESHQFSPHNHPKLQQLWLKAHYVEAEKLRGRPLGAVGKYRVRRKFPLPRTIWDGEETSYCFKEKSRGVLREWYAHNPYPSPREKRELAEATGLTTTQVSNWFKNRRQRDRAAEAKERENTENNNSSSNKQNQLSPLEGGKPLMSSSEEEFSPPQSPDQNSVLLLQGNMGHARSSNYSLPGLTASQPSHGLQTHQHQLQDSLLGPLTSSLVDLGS
#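 AlphaScreen with GST-Six1 and His-Eya2 (5X mix: 250 nM and 500 nM), glutathione donor and nickel acceptor beads; buffer 50 mM Tris pH 8.0, 300 mM NaCl, 1 mM TCEP; 1 h at 37 C in the dark.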
# * = called active by the depositor; ? = inconclusive; nt = no result given; [ ] = remark or other dose. Not a hit list; overall some 1.4% were active at least once.
structure,gsp agonist,gsp antagonist,D2 ag,Six1-Eya2 inh,CtBP-E1A blk,D2 potentiator
Cc1ccc(-c2cccc(C3CC=CC4C3C(=O)N(Cc3ccccc3)C4c3ccc4ccccc4c3)c2)cc1 (stereo not given),nt,4%,-1.0,-10,-20,-11
COc1ccc(CC(N)c2csc(Nc3cc(Oc4ccccc4)ncn3)n2)cc1 (stereo not given),nt,nt,9.5,-9,-19,0
COc1ccc(CNC(=O)COC(=O)CN2C(=O)C3CC=CCC3C2=O)cc1 (stereo not given),-2%,3%,0.2,-2,-5,-6
O=C(NCCCCc1ccccc1)c1ccc(F)cc1,-10%[15.4 µM],2%,1.9,-1,24,-9
COc1ccc2c(CC(=O)NNC(=O)c3ccc(C)cc3)coc2c1,22%,1%,8.2,-8,-1,-6
Cc1cccc(NC(=O)/C(C#N)=C\c2cccnc2)c1,?,10%,-2.2,-10,-10,-21
NC(=O)CCN1CCN(CCOC2Cc3cc(Cl)ccc3Sc3ccccc32)CC1 (stereo not given),4%[15.4 µM],12%,2.8,-8,0,-37
Cc1ccc(C2=NN=C(NC(=O)CSc3nncn3C)SC2)cc1,5%[15.4 µM],13%,-7.3,?,0,-17
N#Cc1c(NC2CCCCC2)nc(-c2ccco2)c2c1CCCC2,11%,-3%,-3.2,27,16,-15
O=C(CC(C(=O)N1CCc2ccccc21)n1ccnc1)N1CCc2ccccc2C1 (stereo not given),-13%,-23%,5.2,-4,-13,5

# Following part
structure,gsp agonist,gsp antagonist,D2 ag,Six1-Eya2 inh,CtBP-E1A blk,D2 potentiator
CN1C(=O)S/C(=C\c2ccccc2OCc2ccc(C(=O)O)cc2)C1=O,-21%,?,3.0,-6,0,-2
Cc1cccc(-c2ccc3[nH]c4c(c3c2)CCN2C[C@@H]([C@H](C)OC(=O)Nc3ccccc3C)[C@@H](N(C)C(=O)Nc3ccccc3C)C[C@@H]42)c1,8%,nt,-11,-15,-17,1
COc1ccc(S(=O)(=O)NCc2ccccn2)cc1NC(=O)c1ccc(C)cc1,34%[15.4 µM],-2%,-4.8,-8,0,-8
Cc1ccccc1CS(=O)(=O)c1ncc(Cl)c(C(=O)Nc2ccc(F)cc2)n1,?,4%,-5.6,-10,nt,-31
CCC1=NN2C(=N)/C(=C/c3cc(C)n(-c4ccccc4)c3C)C(=O)N=C2S1,-5%[15.4 µM],-16%,0.0,3,6,-9
COc1ccc(C=NNc2ccc([N+](=O)[O-])cc2S(=O)(=O)Nc2ccccc2C(=O)O)cc1OC,14%[15.4 µM],?,-6.8,-20,-2,-31
Cc1ccc2nc3c(cc(C(=O)NCCc4ccccc4)c(=N)n3CC3CCCO3)c(=O)n2c1 (stereo not given),-1%,-2%,-2.3,6,3,-10
CC(C)NCC(O)c1cc(O)cc(O)c1 (stereo not given),nt,7%,-3.8,1,2,-24
CC(=O)N1CCC(=O)Nc2ccc([N+](=O)[O-])cc21,-13%,4%,2.3,1,-2,-5
Nc1nc(N)nc(-c2cc(Cl)ccc2Cl)n1,nt,-3%,-4.8,-10,-12,3

# Further results follow:
structure,gsp agonist,gsp antagonist,D2 ag,Six1-Eya2 inh,CtBP-E1A blk,D2 potentiator
CCNC(=S)N1CCC(Cc2ccccc2)CC1,5%,2%,-1.1,4,10,-17
O=C(CCNS(=O)(=O)c1cccc2nonc12)Nc1ccc(Cl)cc1,-4%[15.4 µM],2%,-2.2,-1,0,-1
Cc1ccc(NC(=O)/C=C/c2ccc3c(c2)OCO3)nc1,-3%,7%,-1.0,7,-2,-8
Cc1ccc(C(=O)c2cc([N+](=O)[O-])ccc2N2CCCCC2)cc1C,1%,35%[activator],-3.0,1,6,-15
COc1ccc(C2/C=C\CN(C(=O)Oc3ccccc3)CC(=O)N2Cc2ccc(F)cc2)cc1 (stereo not given),nt,-12%,-1.5,1,-2,-47
N#Cc1nc(-c2ccc(Cl)cc2)oc1NCc1cccc2c1OCO2,51%,4%,-1.8,-3,5,-5
Cc1ccc(NC(=O)CN2CCN(S(=O)(=O)c3ccc4c(c3)OCCO4)CC2)c(C)c1,?,nt,-1.8,2,-8,-7
CC1CCN(c2nc3nonc3nc2N2CCC(C)CC2)CC1,6%,-20%,-1.9,-1,4,-9
Cc1c(Cl)cccc1NC(=S)N/N=C/c1ccccc1Cl,-3%,2%,?,3,6,3
COc1cccc(CNC(=O)CC2Sc3ccccc3NC2=O)c1 (stereo not given),5%[15.4 µM],2%,-3.4,4,0,-2

# New compounds follow
structure,gsp agonist,gsp antagonist,D2 ag,Six1-Eya2 inh,CtBP-E1A blk,D2 potentiator
Cc1noc(COc2ccccc2OCC(O)CNC(C)(C)C)n1 (stereo not given),-41%,16%,-2.5,0,8,-9
CN1CCC(N(C)S(=O)(=O)c2ccc(F)cc2F)CC1,-23%,14%,-2.1,1,0,-15
O=c1c2c(-c3ccccc3)csc2nc2c3ccccc3c(NCCN3CCOCC3)nn12,-21%[15.4 µM],12%,-4.2,-82*,-88*,-11
CN(C)CCNC(=O)c1cccc(-c2cccc3nncn23)c1,nt,nt,-5.9,-15,-10,-10
C[C@H](CO)N1C[C@H](C)[C@@H](CN(C)S(C)(=O)=O)Oc2ccc(NC(=O)CCN3CCOCC3)cc2C1=O,nt,0%,-0.6,3,5,-6
N=c1n(CCCOc2ccc(Br)cc2)c2ccccc2n1CC(N)=O,13%,23%,-3.0,0,-11,-22
Cc1cccc2c3nc4ccccc4nc3n(CCCN3C(=O)c4ccccc4C3=O)c12,2%,3%,-2.8,0,0,-6
COC(=O)CSc1nnc(CNC(=O)c2ccc(OC)c(OC)c2)n1C,-1%[15.4 µM],11%,-3.2,3,3,-3
CC(C)N(C(=O)[C@H]1C[C@H](CC(=O)NCCc2ccccn2)C(=O)N2CCc3c([nH]c4cc(-c5ccco5)ccc34)[C@]12C)C(C)C,nt,-13%,-1.0,-9,-6,-8
O=C(O)c1cccc(NC(=S)NC(=O)c2ccncc2)c1,-29%[15.4 µM],7%,-8.1,1,5,-8

# The list goes on.
structure,gsp agonist,gsp antagonist,D2 ag,Six1-Eya2 inh,CtBP-E1A blk,D2 potentiator
Cn1nnnc1SCc1csc(C2C(C#N)=C(N)OC3=C2C(=O)CCC3)c1 (stereo not given),14%,-1%,-2.2,3,-18,-3
O=c1[nH]c(CN2CCOCC2)nc2cc(Cl)ccc12,-6%,6%,-0.1,-3,-12,3
CC(C)c1cc(C(=O)N/N=C/c2ccoc2)cs1,26%,5%,-6.3,1,0,-11
Cc1cccc(N(Cc2ccccc2F)S(C)(=O)=O)c1,14%,-4%,-3.2,10,5,-7
O=C(CC12CC3CC(CC(C3)C1)C2)NCCN1CCOCC1,-3%,3%,1.5,3,3,-2
Cc1ccc(-c2csc3ncnc(SCC(=O)c4ccc5c(c4)OCCO5)c23)cc1,-36%,-6%,5.5,-4,-10,-8
CCOC(=O)N1CCN(C(=O)c2ccc3c(=O)n(-c4ccc(F)cc4)c(=S)[nH]c3c2)CC1,-24%,-1%,-3.3,22,4,9
Cc1cccc(C)c1NC(=O)CNC(=O)C1CCCC1,26%,-5%,-4.2,7,nt,-5
Cc1cccc(NC(=S)NC2CC3CCCC(C2)N3CC(C)C)c1 (stereo not given),-32%[inhibitor],16%,-4.9,-1,5,-32
Cc1ccc(S(=O)(=O)N2CCCCC2)cc1NC(=O)COC(=O)Cc1cccc(C(F)(F)F)c1,1%[15.4 µM],-7%,-7.3,1,2,-10

# Pulled one by one from above, 2 records:
structure,gsp agonist,gsp antagonist,D2 ag,Six1-Eya2 inh,CtBP-E1A blk,D2 potentiator
N#Cc1c(NC2CCCCC2)nc(-c2ccco2)c2c1CCCC2,11%,-3%,-3.2,27,16,-15
COc1ccc2c(CC(=O)NNC(=O)c3ccc(C)cc3)coc2c1,22%,1%,8.2,-8,-1,-6

# Other structures follow:
structure,gsp agonist,gsp antagonist,D2 ag,Six1-Eya2 inh,CtBP-E1A blk,D2 potentiator
Cc1ccc(C(=O)OCC(=O)NCCC2=CCCCC2)cc1N,4%[15.4 µM],8%,-7.4,2,6,-10
CN(NC(=O)c1c(Cl)cccc1Cl)c1cccc(Cl)n1,-1%[15.4 µM],2%,-1.2,-11,2,-13
O=C(CC(Nc1ccc(Cl)cc1Cl)C(=O)O)c1ccccc1 (stereo not given),?,-5%,6.8,2,nt,-9
O=C(NC1CCCCC1)C(c1ccco1)N(Cc1cccs1)C(=O)Cn1nnc2ccccc21 (stereo not given),-17%,6%,-2.7,-12,-1,-8
CC(C)OP(=O)(OC(C)C)C(NC(=O)c1cccc([N+](=O)[O-])c1)C(N)=O (stereo not given),9%,5%,-3.0,5,2,-25
CCc1ccccc1NC1c2ccccc2C(=O)N1c1cc(C)ccn1 (stereo not given),15%,-5%,-3.8,-2,-5,-9
Cc1noc(C)c1COc1ccc(C(=O)NCC2CCCO2)cc1 (stereo not given),13%,1%,-4.2,-1,2,-2
CC1=C(O)C(=O)OC1c1c(Cl)cccc1Cl (stereo not given),-28%,5%,-3.9,-7,5,-8
CSc1cccc(NC(=O)c2cc(S(=O)(=O)N3CCc4ccccc43)cn2C)c1,20%,-15%,3.7,0,-10,-1
O=C(NCc1cccnc1)C1CCC(CNS(=O)(=O)c2ccc(Cl)cc2)CC1 (stereo not given),20%[15.4 µM],-9%,-3.2,9,4,-5

# (further entries)
structure,gsp agonist,gsp antagonist,D2 ag,Six1-Eya2 inh,CtBP-E1A blk,D2 potentiator
CCc1nc(SCc2ccc(F)cc2)[nH]c(=O)c1C#N,-11%,35µM*,-4.0,5,5,-11
O=C1CN(C(=O)N[C@@H](Cc2ccccc2)C(=O)N[C@H](C(=O)O)c2ccccc2)c2ccccc2N1,-34%[inhibitor],8%,0.6,-1,-1,-2
CC(=O)c1ccc(N(CC(=O)NC2CCS(=O)(=O)C2)S(=O)(=O)c2ccc(C)cc2)cc1 (stereo not given),-4%[15.4 µM],6%,-1.6,7,10,-28
CC(=O)N1CCN(c2ccc(Oc3nnnn3-c3ccccc3)cc2)CC1,-11%,-9%,2.1,1,3,-9
N#C/C(=C\c1cccnc1)c1ccc(Br)cc1,-12%,-3%,-3.9,3,nt,-10
N#Cc1c(N)nc(SCC(=O)NC2CCCCC2)c(C#N)c1-c1ccc(Cl)cc1,?,21%,-1.7,3,8,-10
Cc1cc2nc3ccc(N(C)C)cc3nc2cc1N,30%,-18%,3.8,?,-14,-3
COc1ccccc1C(=O)OC(C)CN1CCN(C)CC1 (stereo not given),-21%,6%,-0.7,-1,nt,-24
CCC(C)NC(=O)c1nc2c(nnn2Cc2ccccc2Cl)c(=O)[nH]1 (stereo not given),0%[15.4 µM],-16%,-2.8,-5,-13,5
CCC(C)(C)NC(=O)C(c1cccc(OC)c1OC)N(CCOC)C(=O)CCC(=O)Nc1cc(C)on1 (stereo not given),0%,9%,-4.1,5,-1,-4
CC(Oc1ccccc1F)C(=O)NC1CCS(=O)(=O)C1 (stereo not given),2%,6%,-5.0,-25,-4,-9
